# Lassa entry – qHTS for Inhibitors of binding or entry into cells for Lassa Virus. Potency, µM (top dose mostly 49.2 µM), for inactives: at the highest dose activity change, negative = inhibition, most hits filed as inhibitors. hit rate 4.1% among 18,000. Lassa virus pseudotyped entry inhibition, cell-based qHTS; control for the full effect not named in the record; many of its hits are not listed in these tables. AID 720533, 2013; active = well fitted inhibition curve with a large enough effect; inconclusive = small, poorly fitted or top-dose-only effect; inactive = no such curve, though single readings can be large or run the other way; tested in HEK293 cells; also: luciferase read-out
# Marburg entry – qHTS for Inhibitors of binding or entry into cells for Marburg Virus; AID 720532, 2013; Marburg virus pseudotype entry/binding inhibition, cell-based; control for the full effect not named in the record; many of its hits are not listed in these tables; Potency, µM (titrated, usually from 49.2 µM), without a hit: at the top dose activity change, negative = inhibition, hits mostly inhibitors; hit rate 6.5% among 18,000; active means well fitted inhibition curve with a large enough effect; inconclusive means small, poorly fitted or top-dose-only effect; inactive means no such curve, though single readings can be large or run the other way; tested in HEK293 cells; also: luciferase read-out
# Active calls of the source: *; u = inconclusive; x = not tested or not shown; & = joins results of further samples; [ ] = remark or other dose. % is scaled to controls: 0 for no effect and ±100 for the full control effect; potency is read from the fitted curve at half-maximal effect.
SMILES,Lassa entry,Marburg entry
CC[C@H](C)[C@H](NC(=O)[C@H](Cc1ccccc1)NC(=O)[C@H](CC(C)C)NC(=O)[C@H](CCSC)NC(=O)[C@H](CCC(=O)O)NC(=O)[C@H](CCC(=O)O)NC(=O)[C@H](CC(=O)O)NC(=O)[C@H](CO)NC(=O)[C@@H]1CCCN1C(=O)[C@H](CCCCN)NC(=O)[C@@H](N)[C@@H](C)O)C(=O)N[C@@H](Cc1ccc(O)cc1)C(=O)NCC(=O)N[C@@H](Cc1cnc[nH]1)C(=O)N[C@@H](Cc1ccc(O)cc1)C(=O)N[C@@H](CCCCN)C(=O)N[C@@H](CCC(N)=O)C(=O)N[C@@H](C)C(=O)N[C@H](C(=O)N[C@H](C(=O)NCC(=O)N[C@@H](CC(=O)O)C(=O)N[C@H](C(=O)N[C@@H](CC(N)=O)C(=O)N[C@H](C(=O)N[C@@H](CCC(=O)O)C(=O)N[C@@H](CCCNC(=N)N)C(=O)N1CCC[C@H]1C(=O)NCC(=O)N[C@@H](CCSC)C(=O)N[C@@H](CC(C)C)C(=O)N[C@@H](CC(=O)O)C(=O)N[C@@H](Cc1ccccc1)C(=O)N[C@H](C(=O)O)[C@@H](C)O)[C@@H](C)O)[C@@H](C)CC)C(C)C)[C@@H](C)O,-7.0%,1.1%
CN(C)CCN(C)C1CN(Cc2ccc(F)cc2)S(=O)(=O)C1 (stereo not given),19.3%,10.2%
CN(c1ccc(Cl)cc1)c1cc2c(c3c1ccn3C)C1CCC2O1 (stereo not given),x,u
C=C(C)C(=O)OC[C@H]1CN2[C@H](c3ccc(Br)cc3)[C@H](C)CC[C@H]2C(=O)O1,-6.4%[8.59 µM],u
CC(C)C[C@@H](CC(=O)N[C@H](CC(=O)N[C@@H]1CCCC[C@H]1C(=O)N[C@H](CC(=O)N[C@@H](CCC(=O)O)CC(=O)O)Cc1ccccc1)C(C)C)NC(=O)[C@@H]1CNCC[C@H]1N,-6.5%,-1.3%
C=C(CCN1C=C(C(=O)OCC)C(c2ccccc2)NC1=O)c1ccccc1 (stereo not given),19.2%[8.59 µM],u
O=C(O)c1ccccc1S,-3.0%,13.0%
COC(=O)C1=C2CCO[C@H]2[C@@H]2[C@@H](C)[C@H](OC)c3ccccc3[C@@H]12,x,u
CC(=O)Oc1c(C)cccc1C(=O)O,0.0%,11.7%
Cn1c(SCC2CCCO2)nnc1C1CCN(Cc2ccc(-c3cccc(Cl)c3)o2)CC1 (stereo not given),-25.2%,10.3%
Cc1ccc(-c2ccc(CN3C(C(C)C)C(=O)N(Cc4cn(CCC5OCCO5)nn4)CCS3(=O)=O)cc2)c(C)c1 (stereo not given),-12.8%,u
CC[C@H](C)[C@H](NC(=O)[C@H](CCC(=O)O)NC(=O)[C@H](CO)NC(=O)[C@@H](NC(=O)[C@H](C)N)C(C)C)C(=O)N[C@@H](CCC(N)=O)C(=O)N[C@@H](CC(C)C)C(=O)N[C@@H](CCSC)C(=O)N[C@@H](Cc1cnc[nH]1)C(=O)N[C@@H](CC(N)=O)C(=O)N[C@@H](CC(C)C)C(=O)NCC(=O)N[C@@H](CCCCN)C(=O)N[C@@H](Cc1cnc[nH]1)C(=O)N[C@@H](CC(C)C)C(=O)N[C@@H](C)C(=O)N[C@@H](CO)C(=O)N[C@H](C(=O)N[C@@H](CCC(=O)O)C(=O)N[C@@H](CCCNC(=N)N)C(=O)N[C@@H](CCSC)C(=O)N[C@@H](CCC(N)=O)C(=O)N[C@@H](Cc1c[nH]c2ccccc12)C(=O)N[C@@H](CC(C)C)C(=O)N[C@@H](CCCNC(=N)N)C(=O)N[C@@H](CCCCN)C(=O)N[C@@H](CCCCN)C(=O)N[C@@H](CC(C)C)C(=O)N[C@@H](CCC(N)=O)C(=O)N[C@@H](CC(=O)O)C(=O)N[C@H](C(=O)N[C@@H](Cc1cnc[nH]1)C(=O)N[C@@H](CC(N)=O)C(=O)N[C@@H](Cc1ccccc1)C(=O)O)C(C)C)C(C)C,-3.7%,-4.1%
Cc1cnc(C)c(-c2cc(F)cc3c2OC(CNC(=O)CN2CCCC2)C3)n1 (stereo not given),-5.0%,6.8%
CCn1c(-c2nonc2N)nc2c(C#CC(C)(C)O)nc(OC(CN)c3ccccc3)cc21 (stereo not given),u,u
CC1CC2OC2/C=C\C=C/C(=O)Cc2c(Cl)c(O)cc(O)c2C(=O)O1 (stereo not given),7.94µM*,2.51µM*
C#C[C@]1(OC(C)=O)CCC2C3CCC4=CC(=O)CCC4C3CC[C@]21C (stereo not given in full),-12.8%,0.6%
COC(=O)[C@H]1CC2(CC=C(C)C)C(=O)[C@@](CC=C(C)C)(C(=O)C(C(=O)c3ccccc3)=C2OC)C1(C)C (tested in a mixture with another compound),7.6%,8.6%
CC(C)C(=O)N[C@@H]1CCCN1C(=O)C=Cc1ccccc1,x,-46.9%[8.59 µM]
Cc1cccc(N(C)C(=S)Oc2ccc3ccccc3c2)c1,6.3%[17.8 µM],3.0%[17.8 µM]
Cc1c2ccncc2c(C)c2c1[nH]c1ccccc12,0.2%[17.8 µM],4.47µM*
Cc1ccc(S(=O)(=O)NCCNS(=O)(=O)c2ccccc2Br)cc1,11.5%,25.9%
C[C@@H](N)CCCP(=O)(O)O,-21.2%,-11.5%
C[C@H]1[C@@H](c2ccccc2)Oc2ccc(Cl)cc2S(=O)(=O)N1Cc1cccc(F)c1,18.0%,-13.6%
OC[C@@H](O)COc1cccc2ccccc12,-4.2%,-8.5%
CCOc1cncc(/C=C/CCNC)c1,24.6%,-21.5%
COC(=O)C1=C(C(=O)OC)[C@@H]2N(C)c3ccccc3[C@@]23C[C@@H](CO)N(C(=O)c2ccc(Br)cc2)C3=N1,13.7%[8.59 µM],u
CC(C)C[C@H](NC(=O)[C@H](CC(C)C)NC(=O)[C@H](CCC(N)=O)NC(=O)[C@H](CO)NC(=O)[C@@H]1CCCN1C(=O)[C@H](CO)NC(=O)[C@H](CO)NC(=O)[C@@H](NC(=O)[C@H](Cc1cnc[nH]1)NC(=O)[C@H](CCC(=O)O)NC(=O)[C@H](Cc1ccc(O)cc1)NC(=O)[C@H](CCCCN)NC(=O)[C@H](CCC(N)=O)NC(=O)[C@H](Cc1ccc(O)cc1)NC(=O)[C@H](CC(=O)O)NC(=O)[C@@H](NC(=O)[C@@H]1CCCN1C(=O)[C@H](CC(=O)O)NC(=O)[C@H](CC(N)=O)NC(=O)[C@H](CC(=O)O)NC(=O)CNC(=O)[C@H](CC(=O)O)NC(=O)[C@@H]1CCCN1C(=O)[C@H](CCC(N)=O)NC(=O)[C@H](Cc1ccc(O)cc1)NC(=O)[C@H](C)NC(=O)[C@H](Cc1c[nH]c2ccccc12)NC(=O)[C@H](Cc1ccccc1)NC(=O)[C@@H](NC(=O)[C@@H](N)CO)[C@@H](C)O)[C@@H](C)O)[C@@H](C)O)C(=O)N[C@@H](C)C(=O)N1CCC[C@H]1C(=O)NCC(=O)N[C@@H](CC(=O)O)C(=O)N[C@@H](Cc1ccc(O)cc1)C(=O)O,-1.0%,3.8%
O=S1(=O)C=CCN1Cc1ccc(F)cc1,-26.9%,-4.9%
OC12C3C4CC5C6C4C1C6C(C53)N2CCc1cccc(F)c1 (stereo not given),-23.3%,u
COc1cc(OC)c2c(=O)c(-c3ccccc3)c(C)oc2c1OC,1.6%,11.6%

# Arranged by length of the SMILES (ascending): some entries from above
SMILES,Lassa entry,Marburg entry
CCOc1cncc(/C=C/CCNC)c1,24.6%,-21.5%
Cc1cccc(N(C)C(=S)Oc2ccc3ccccc3c2)c1,6.3%[17.8 µM],3.0%[17.8 µM]
COc1cc(OC)c2c(=O)c(-c3ccccc3)c(C)oc2c1OC,1.6%,11.6%
Cc1ccc(S(=O)(=O)NCCNS(=O)(=O)c2ccccc2Br)cc1,11.5%,25.9%
C#C[C@]1(OC(C)=O)CCC2C3CCC4=CC(=O)CCC4C3CC[C@]21C (stereo not given in full),-12.8%,0.6%
COC(=O)[C@H]1CC2(CC=C(C)C)C(=O)[C@@](CC=C(C)C)(C(=O)C(C(=O)c3ccccc3)=C2OC)C1(C)C (tested in a mixture with another compound),7.6%,8.6%

# Remaining list, next part:
SMILES,Lassa entry,Marburg entry
CC(C)C[C@H](NC(=O)[C@@H]1CCC(=O)N1)C(=O)N[C@@H](Cc1ccc(O)cc1)C(=O)N[C@@H](CCC(=O)O)C(=O)N[C@@H](CC(N)=O)C(=O)N[C@@H](CCCCN)C(=O)N1CCC[C@H]1C(=O)N[C@@H](CCCN=C(N)N)C(=O)N[C@@H](CCCN=C(N)N)C(=O)N1CCC[C@H]1C(=O)N[C@@H](Cc1ccc(O)cc1)C(=O)O,1.2%,6.0%
Cc1cc(C(=O)NCC2CCC3(CCN(Cc4ccccc4C)CC3)O2)n(C)n1 (stereo not given),-7.9%,-11.1%
Cc1ccccc1C1CC(=O)Oc2ccc(C(C)(C)C)cc21 (stereo not given),1.2%,19.5%
CN1c2ccccc2[C@@]2(O)C(=O)[C@@]1(C)[C@@H]1C=CCC[C@H]12,3.2%[8.59 µM],28.8%[8.59 µM]
Cc1ccc([C@H]2C[C@H](n3cc(-c4ccc(F)cc4)nn3)[C@@H](O)CN2CC2CCCCC2)cc1,x,u
CC/C=C(\C(=O)N[C@@H]1C(=O)N2C(C(=O)OCOC(=O)C(C)(C)C)=C(COC(N)=O)CS[C@H]12)c1csc(N)n1,-7.5%&-14.0%,8.3%&-3.6%
C=C(CCN1C=C(C(C)=O)C(c2ccccc2)NC1=O)c1ccccc1 (stereo not given),-7.6%[8.59 µM],u
C[C@H]1COc2cc(N3CCCC3)ccc2S(=O)(=O)N1,5.0%,11.6%
C=C(C#CCCO)CCN1C=C(C(=O)OCC)C(c2ccccc2)NC1=O (stereo not given),59.0%[activator][8.59 µM],1.9%[8.59 µM]
COc1ccc(-c2oc3cc(O[C@@H]4OC(CO)C(O)C(O)C4O)c(OC)c(O)c3c(=O)c2OC)cc1O (stereo not given in full),u,7.4%
O=c1[nH]c2cc([N+](=O)[O-])c([N+](=O)[O-])cc2[nH]c1=O,5.6%&2.7%,13.0%&8.6%
COc1ccccc1-c1nc(NCc2ccccc2)c2ccccc2n1,14.1µM*,12.6µM*
CCCCC1=CC2=C(c3ccco3)C(=O)C(C)(OC(=O)c3ccc(OC)cc3)C(=O)C2=CN1c1ccc(OC)cc1 (stereo not given),-9.5%[8.59 µM],-16.6%[8.59 µM]
COc1c2c(cc3occ(-c4ccc5c(c4)OCO5)c(=O)c13)OC(C)(C)C=C2,u,7.7%
Cc1ccc(CN2CCOc3ccc(CN4CCC(O)(c5cccnc5)CC4)cc3C2)cc1C,-22.1%,u
COCCN1C(=O)N[C@@H](CCc2ccccc2)[C@@H](C(=O)OC)[C@H]1C,30.3%[activator][8.59 µM],27.4%[8.59 µM]
Cc1ccc2c(c1)CN(CCNC(=O)c1cccc(Cn3cccn3)c1)CC(C)O2 (stereo not given),2.0%,u
NC(N)=NCCCCN=C(N)N,-4.0%,-23.1%
Cc1cc2c(nc1C)CCCN2CC(O)CN1CCCc2nc(-c3ccc(Br)cc3)ccc21 (stereo not given),10.1%&1.5%[8.59 µM],u
N[C@H](Cc1cc(I)c(Oc2cc(I)c(O)c(I)c2)c(I)c1)C(=O)O,-1.5%[17.8 µM],-5.5%[17.8 µM]
O=C1CCC=C1C(O)c1ccccc1 (stereo not given),-0.5%,-13.0%
CCC[C@]12CCN3C(=O)N[C@@H](c4ccccc4)[C@](C(=O)OCC)(C1)[C@H]32,-15.1%[8.59 µM],8.8%[8.59 µM]
C=C(C)CO[C@H]1C=C[C@@H](c2ccccc2)O[C@H]1CO,-23.9%[8.59 µM],2.3%[8.59 µM]
COc1ccccc1CNc1nc(-c2ccccc2CN(C)C)nc2ccccc12,u,11.2µM*
CC1OC(OCC2OC(Oc3c(-c4ccc(O)c(O)c4)oc4cc(O)cc(O)c4c3=O)C(O)C(O)C2O)[C@@H](O)C(O)C1O (stereo not given in full),-10.4%,-17.7%
CC(=O)Oc1cc(C(F)(F)F)ccc1C(=O)O,-13.8%[17.8 µM],-5.1%[17.8 µM]
CC1CC(OC(=O)C(O)c2ccccc2)CC(C)(C)N1C (stereo not given),0.6%[17.8 µM],1.1%[17.8 µM]
CCCn1c(=O)c2[nH]c(-c3ccc(OCC(=O)Nc4ccc(C#N)cc4)cc3)nc2n(CCC)c1=O,-7.0%,4.6%
O=C1NC(=O)[C@H]2[C@@H]1[C@@H]1C=C[C@H]2C1,-23.0%,6.3%
Cc1ccc(/C=C2/CNC/C(=C\c3ccc(C)cc3)C2=O)cc1,11.2µM*,3.55µM*
C[C@@H](NS(=O)(=O)c1cc(Cl)ccc1F)[C@H](O)c1ccccc1,8.7%,-15.6%
COC(=O)CCCC1=CC2=CC(=O)C(C)(OC(=O)c3cccs3)C(=O)C2=CN1c1ccccc1 (stereo not given),-1.5%[8.59 µM],-2.3%[8.59 µM]
CCn1c(-c2nonc2N)nc2ccc(F)cc21,-9.9%,u
C=CCC(O)(/C=C/c1ccccc1)c1ccccc1 (stereo not given),3.1%,16.7%
C=CC1=C(C(=O)O)N2C(=O)[C@@H](NC(=O)/C(=N/OCC(=O)O)c3csc(N)n3)[C@H]2SC1 (stereo in doubt),0.4%[17.8 µM],11.5%[17.8 µM]
C=O,7.4%,-4.0%

# Source: PubChem BioAssay (National Center for Advancing Translational Sciences (NCATS))
